# Screens deposited in PubChem BioAssay by National Center for Advancing Translational Sciences (NCATS).
# HPGD inh = blocks human HPGD enzyme activity; Potency, µM, for inactives: top-dose activity change, negative = inhibition, actives largely listed as inhibitors; purified HPGD, NADH fluorescence kinetic, PGE2 substrate; AID 894; P15428; 150,000 tested, 4.3% active; active = well fitted inhibition curve with a large enough effect (not every such curve was filed as active); inconclusive = small, poorly fitted or top-dose-only effect, or another doubt; inactive = no such curve, though single readings can be large or run the other way;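 also: top concentration of the series not given in the record; plate controls included wells without enzyme; inactives centre near -10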
# Target sequence (P15428 whole entry, looked up): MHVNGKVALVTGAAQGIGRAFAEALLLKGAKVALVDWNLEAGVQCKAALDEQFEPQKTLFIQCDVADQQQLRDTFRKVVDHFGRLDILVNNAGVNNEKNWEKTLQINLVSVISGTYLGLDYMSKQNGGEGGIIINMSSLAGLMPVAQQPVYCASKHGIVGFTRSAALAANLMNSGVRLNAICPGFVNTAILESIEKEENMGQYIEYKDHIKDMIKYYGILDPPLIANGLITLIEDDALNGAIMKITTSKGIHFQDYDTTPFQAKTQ
#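 NADH formation kinetics: reaction with 30 uM PGE2 and 1 mM NAD+ (final), 20 nM enzyme, Tris-HCl pH 8 with Tween 20, after 15 min compound preincubation at room temperature. Fluorescence change, last versus first of five reads.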
# The depositor's hits bear a star; ? = inconclusive; & = joins results of further samples. % is scaled to controls: 0 for no effect and ±100 for the full control effect; potency is read from the fitted curve at half-maximal effect.
molecule | HPGD inh
O=C(c1cccc(F)c1)N1CCC2(CCCN(Cc3ccccc3)C2)CC1 | -9%
COCCn1c(C)cc(C2=NNC(=Nc3ccc(Cl)cc3Cl)SC2)c1C | -11%
COC(=O)c1[nH]c2ccc(C)cc2c1NC(=O)CN1CCN(Cc2ccccc2)CC1 | ?
CN1CCN(c2nc3cc(C(F)(F)F)ccc3n3cccc23)CC1 | -19%&-11%
Cn1c(=O)[nH]c(=O)c2c1nc(N1CCc3ccccc3C1)n2CCSc1nc2ccccc2s1 | -19%
CCCOc1nc2c(c(=O)n(C)c(=O)n2C)n1CC | -13%
OCCOCCOCCn1c2ccccc2c2ccccc21 | 0%
Cc1n[nH]c(=S)n1/N=C/c1ccc(OCc2ccc(Cl)cc2Cl)cc1 | ?
Cc1ccc(F)cc1NC(=O)c1ccc2c(c1)OCO2 | 20µM*
CNC(=S)NCCC(c1ccccc1)c1ccccc1 | -4%
CNC(=S)Nc1ccc(C)cc1 | -3%
COC(=O)C1=C(C)N(C)C(C)=C(C(=O)OC)C1c1cccc(Br)c1 | -4%
CCOc1ccc(C(C)(O)CN2CCOCC2)cc1 (configuration not stated) | -3%
CCOC(=O)C1CCCN(Cc2nc(N)nc(Nc3ccccc3)n2)C1 (configuration not stated) | -2%
COC(=O)c1ccccc1NC(=O)Cn1cc2c(n1)CCC(C)C2 (configuration not stated) | -16%
CCOC(=O)c1c(C)oc2c(CC(=O)c3ccccc3)c(Cl)c(O)c(O)c12 | 7.1µM*
COc1cccc(C2CC(c3ccc(Cl)cc3Cl)Nc3nc(N)nn32)c1 (configuration not stated) | 3%
CCCC(=O)Nc1nnc(SCC(=O)NCc2cccs2)s1 | -6%
CC1CC(C)CN(C(=S)NC2CCCCC2)C1 (configuration not stated) | 6%
O=C(CC1Sc2ccccc2NC1=O)OCC(=O)N1CCc2ccccc21 (configuration not stated) | -4%
COC(=O)c1cc2ccccc2c(-c2c(OC)c(C(=O)OC)cc3ccccc23)c1OC | ?
COc1ccc(NC(=O)c2cc(S(=O)(=O)N3CCCCC3)ccc2N2CCCCC2)cn1 | -11%
CCC(c1nnnn1Cc1cccs1)N1CCN(C2CCCC2)CC1 (configuration not stated) | -8%
COc1ccc(CN2C(=O)CCC2(C)C(=O)NC2CCCCCC2)cc1 (configuration not stated) | -10%
CCCCNC(=S)NC(=O)c1ccc([N+](=O)[O-])cc1 | -9%
CCC1CCc2c(sc(NC(C)=O)c2C#N)C1 (configuration not stated) | -9%
Cc1ccccc1NC(=O)/C(=C\c1cccs1)NC(=O)c1ccco1 | -9%
CCCCC(=O)Nc1ccc2c(c1)C(=O)NC2=O | ?
Cc1cc2c(nn1)CCC/C2=N\O | -1%
COc1ccccc1COCC(O)CNCC1(N2CCCCC2)CCCCC1 (configuration not stated) | 5%

# The last two entries of the part above open the next one.
molecule | HPGD inh
Cc1cc2c(nn1)CCC/C2=N\O | -1%
COc1ccccc1COCC(O)CNCC1(N2CCCCC2)CCCCC1 (configuration not stated) | 5%
S=C(NCCCN1CCOCC1)NCCCN1CCOCC1 | ?
CCOC(=O)C(/C=C(\C#N)C(=O)OCC)=C(/N)N1CCN(c2ccccc2)CC1 | -13%
Cc1nnc(NC(=O)CSc2nc(C(C)C)nc3ccccc23)s1 | -2%
COc1ccc(-c2cc(=O)n(-c3nc4ccccc4[nH]3)[nH]2)cc1 | -13%
Cc1n[nH]c(=O)nc1NCc1ccco1 | 1%
O=C(c1cnc2n(c1=O)CCS2)N1CCN(c2ccc([N+](=O)[O-])cc2)CC1 | -12%
COC(=O)c1ccccc1NC(=O)CN1CCC(n2nnc3cc(F)ccc32)CC1 | -10%
CC(NC(=O)c1ccc2c(c1)OCO2)C(c1cccs1)N1CCOCC1 (configuration not stated) | -11%
O=C1CC(c2ccccc2)CC(O)=C1C=NCc1ccco1 (configuration not stated) | -10%
O=c1c2[nH]c3ccc(F)cc3c2ncn1CCN1CCOCC1 | -13%
O=C1CCCC/C1=C/Nc1ccc(C(=O)O)cc1 | -29%
C=CCn1c(SC2CCOC2=O)nc2sc(C)c(C)c2c1=O (configuration not stated) | -26%
Nc1nc2n(n1)C(c1cccc(Cl)c1)CC(c1ccc(F)cc1)N2 (configuration not stated) | -10%
O=C(COC(=O)CN1C(=O)c2ccccc2C1=O)Nc1ccc(S(=O)(=O)N2CCCC2)cc1 | -2%
COc1ccc2ccccc2c1C1CC(=O)N2CN(C)CSC2=C1C#N (configuration not stated) | 6.3µM*
Cc1cccc2c1CC(C)(C)N=C2C1=C(O)CCCC1=O | -15%
COc1ccc(-c2cc(C(=O)O)c3ccccc3n2)c(OC)c1 | -2%
O=C(O)C1CCC(N2C(=O)C3CCCCC3C2=O)CC1 (configuration not stated) | 2%
COc1ccc(NS(=O)(=O)c2cc([N+](=O)[O-])ccc2N/N=C\c2c(C)[nH]c3ccccc23)cc1 | -8%
CCN(CC)S(=O)(=O)c1ccc(NC(=O)COC(=O)CN2C(=O)c3ccccc3C2=O)cc1 | -6%
CCOC(=O)Cn1c2c(c(=N)c3ccccc31)CCC2 | -8%
Cc1cc(C2C(C#N)=C(N)Oc3n[nH]c(C)c32)c(C)s1 (configuration not stated) | -22%
Cc1cc(C)cc(C(=O)NCC(=O)OCC(=O)c2cc(C)n(CC(F)(F)F)c2C)c1 | -1%
O=C(NC(=S)NCCCN1CCOCC1)c1ccc([N+](=O)[O-])cc1 | -7%
CN(C)c1nc(Nc2ccc(Cl)cc2)nc(OCC#N)n1 | -18%
CCC(=O)Nc1ccc(Oc2ccc3c(c2)C(=O)NC3=O)cc1 | 16µM*
O=C1CC(c2ccco2)Cc2nc(Nc3nc(-c4ccccc4)c4ccccc4n3)ncc21 (configuration not stated) | -13%
C/C(CC(=O)NC12CC3CC(CC(C3)C1)C2)=N\NC(=O)Cc1cccs1 | -14%
C=C(C)CSC1=C(C#N)C(c2ccsc2)CC(=O)N1 (configuration not stated) | -19%
CC(C)C(NC(=S)Nc1ccccc1)C(=O)O (configuration not stated) | 32µM*

# (more compounds)
Molecule | HPGD inh
CCN1CCN(S(=O)(=O)c2cccc3nsnc23)CC1 | -8%
C=CCNC(=O)N1CCc2nc(-c3ccccc3)c3c(c2C1)CO[C@@H](C)C3 | 7%
CCOC(=O)c1nc(N2CCN(C(=O)OCC)CC2)c2c3c(sc2n1)CCCC3 | ?
COC(=O)c1cc(NC(=O)C2CC=CCC2C(=O)O)cc(C(=O)OC)c1 (configuration not stated) | -7%
c1ccc2c(c1)[nH]c1c(N3CCOCC3)ncnc12 | -14%
COC(=O)c1ccc(C(NC(=O)OCc2ccccc2)/C(F)=C/[C@@H](C)C(=O)NCc2cc(F)cc(F)c2)cc1 (some centres not stated) | -10%
Cn1nnnc1SCC(=O)NCCc1ccc(Cl)cc1 | -8%
CC(=O)Nc1ccc(NC(=O)c2ccccc2S(=O)(=O)c2ccccc2[N+](=O)[O-])cc1 | -8%
O=C1/C(=C\c2cccnc2)CN(Cc2ccccc2)C/C1=C\c1cccnc1 | -25%
CCOc1ccc(CCNC(=O)CSc2cc(=O)n(C)c3cc(Cl)ccc23)cc1OCC | 1%
Cc1cccc(CSCCNC(=O)CCSc2ccccc2)c1 | 28µM*
CCOC(=O)c1ccccc1NC1c2ccccc2C(=O)N1c1cc(C)ccn1 (configuration not stated) | ?
O=C(CCCN1C(=O)c2ccccc2C1=O)N1CCC(c2ccccc2)C1 (configuration not stated) | -14%
O=[N+]([O-])c1ccc(/C=N/Nc2nc(-c3ccccc3)c3cc(Br)ccc3n2)o1 | -14%
COc1ccc(C2N=C(Nc3ccc(C)cc3)Nc3nc(C)cc(=O)n32)cc1 (configuration not stated) | -10%
COc1ccccc1-c1coc2c(CN3CCN(C)CC3)c(O)ccc2c1=O | ?
O=C(CSc1ncc(-c2ccccc2)n1C1CCCC1)N1CCc2ccccc21 | -9%
Cc1[nH]c2ccccc2c1/C=N\NC(=O)CNc1ccc2c(c1)OCO2 | -3%
COc1ccc(C2C(C(=O)NCc3ccccn3)c3cc(OC)c(OC)cc3C(=O)N2C)cc1 (configuration not stated) | -9%
O=C(CN1CCN(C2CCCCC2)CC1)c1c[nH]c2ccccc12 | -11%
CCc1c(C)nc2ncnn2c1N1CCC(C(=O)NCc2cccc(OC)c2)CC1 | -8%
O=S(=O)(CCc1nc2ccccc2o1)c1ccc(Cl)cc1 | -5%
O=C(Nc1cnc2sccn2c1=O)c1ccccc1Cl | -15%
Cc1cc(N2CCCC2)c(C)cc1C=O | -7%
O=C(c1ccccc1)N1CCCCC(Sc2nnc3ccccn23)C1=O (configuration not stated) | -16%
COc1ccccc1CNC(=O)C1CCC1 | 14µM*
CCOc1ccccc1N1CCN(Cc2cccc(OC)c2O)CC1 | 3%
CCC(c1nnnn1Cc1ccco1)N1CCN(C(=O)c2ccco2)CC1 (configuration not stated) | 0%
Cc1ccc(-c2cc(C(=O)Nc3c(C#N)cnn3C)no2)cc1 | -18%
CCc1nc2c(n1O)CCc1nonc1-2 | -10%
CCN(CC)c1ccc(NC(=O)c2ccco2)c(C)c1 | -9%
COc1ccccc1N(CN1CCCC1=O)C(=O)c1c(F)cccc1Cl | -9%
CCCN1C(=O)/C(=N\OCC(=O)NC23CC4CC(CC(C4)C2)C3)c2ccccc21 | 16µM*
Cc1ccc(-c2nn(C)c(=O)c3ccccc23)cc1CNC(=O)CN1CCOCC1 | 20µM*
CCCCS(=O)Cc1ccccc1 (configuration not stated) | 0%
Cc1nnc(SCCn2c(N3CCN(C)CC3)nc3c2c(=O)[nH]c(=O)n3C)s1 | -6%
CCOc1ccc(NC(=O)N(CCCN2CCOCC2)Cc2cccnc2)cc1 | -4%
O=C(Cn1cccc1)NCc1cccs1 | 20µM*
Cc1ccc(NCC(O)C(O)C(O)CO)cc1C (configuration not stated) | -4%
COc1ccc(Oc2nccc(-c3ccccc3)c2C#N)cc1 | -15%
c1ccc(-c2cc3c(N4CCOCC4)ncnc3s2)cc1 | ?
Cc1oncc1-c1cn2ccccc2n1 | ?
CC1(C)Cc2nc3oc4c(N5CCOCC5)ncnc4c3cc2CO1 | ?
Cc1ccc(S(=O)(=O)NC(C)CCc2ccccc2)cc1 (configuration not stated) | -6%
Cc1ccc(CNC(=O)CN(C)S(=O)(=O)c2cnc[nH]2)cc1 | -1%
O=C(Nc1ccc(Oc2ccccc2)cc1)C1CCN(c2ncccn2)CC1 | -12%
CCCC(C)C(=O)NCc1ccccc1OC (configuration not stated) | -17%
Nc1nc2ccccc2n1/N=C/c1ccc(-c2ccccc2)o1 | -15%
CCOC(=O)CSc1nc(C)cc(Oc2ccc(=O)n(C)n2)n1 | -2%
CC(=O)NCCc1cc2ccc(C)c(C)c2[nH]c1=O | ?

# Structural class, the compounds so far containing bromine.
Molecule | HPGD inh
COC(=O)C1=C(C)N(C)C(C)=C(C(=O)OC)C1c1cccc(Br)c1 | -4%
O=[N+]([O-])c1ccc(/C=N/Nc2nc(-c3ccccc3)c3cc(Br)ccc3n2)o1 | -14%

# (further entries)
Molecule | HPGD inh
Cc1ccc(S(=O)(=O)N2CCOCC2)cc1NC(=O)CSc1nc2ccccc2c(=O)n1Cc1ccccc1 | -7%
CCSC1=N/C(=C\c2ccc3c(c2)OCO3)C(=O)S1 | -17%
O=C1N=C(N2CCCC2)S/C1=C\c1cn[nH]c1-c1ccccc1 | ?
O=C(NC12CC3CC(CC(C3)C1)C2)C1CC(=O)N(c2ccc(Br)cc2)C1 (configuration not stated) | -3%
Cn1nnnc1Sc1ncnc2scc(-c3ccc(F)cc3)c12 | -10%
O=C(CN1C(=O)NC(Cc2ccccc2)C1=O)Nc1ccc(F)cc1 (configuration not stated) | -8%
CCN(CC)CCN(Cc1cc2cc3c(cc2[nH]c1=O)OCCO3)C(=O)NC1CCCCC1 | ?
COc1cc2[nH]c(=S)n(CCN3CCOCC3)c(=O)c2cc1OC | -21%
COCCN(C(=O)CN1CCN(S(=O)(=O)c2ccc(F)cc2)CC1)c1c(N)n(Cc2ccccc2)c(=O)[nH]c1=O | 1%
COc1ccccc1N1CCN(CC(=O)NCC2CCCO2)CC1 (configuration not stated) | 7%

# Given with the structure last: 7 of the compounds above
HPGD inh	structure
-8%	O=C(CN1C(=O)NC(Cc2ccccc2)C1=O)Nc1ccc(F)cc1 (configuration not stated)
-7%	Cc1ccc(S(=O)(=O)N2CCOCC2)cc1NC(=O)CSc1nc2ccccc2c(=O)n1Cc1ccccc1
-17%	CCSC1=N/C(=C\c2ccc3c(c2)OCO3)C(=O)S1
-21%	COc1cc2[nH]c(=S)n(CCN3CCOCC3)c(=O)c2cc1OC
?	O=C1N=C(N2CCCC2)S/C1=C\c1cn[nH]c1-c1ccccc1
?	CCN(CC)CCN(Cc1cc2cc3c(cc2[nH]c1=O)OCCO3)C(=O)NC1CCCCC1
7%	COc1ccccc1N1CCN(CC(=O)NCC2CCCO2)CC1 (configuration not stated)

# Next part.
Molecule | HPGD inh
Cc1ccc2[nH]c(=O)c(CN(CC3CCCO3)C(=S)Nc3ccccc3)cc2c1 (configuration not stated) | -20%
CC(C)(C)c1ccc(/C=C/C(=O)NC2=NCCS2)cc1 | -18%
CCC(=O)c1cc2c(cc1NC(=O)c1ccc(C)cc1)OCCO2 | ?
NNC(=O)c1ccc(COc2ccc3c(c2)CCC3)cc1 | -17%
Cc1noc(NS(=O)(=O)c2ccc(NC(=O)CCC3CCCC3)cc2)c1C | -1%
Nc1nonc1-c1nc2ccccc2n1Cc1ccc(F)cc1Cl | -7%
CCCCP(=O)(CCCC)c1ccccc1C(=O)O | -9%
O=c1c(-c2cccs2)nc2cnc(N3CCNCC3)nc2n1-c1ccccc1 | ?
O=C(Nc1ccn(Cc2ccccc2F)n1)c1ccc(COc2ccccc2Cl)cc1 | -26%
Cc1ccc(N/N=C(\Cc2nc3ccccc3[nH]2)c2ccccc2)cc1 | ?
COc1ccc(OC)c(-n2c(C)ccc2-c2ccc(S(C)(=O)=O)cc2)c1 | ?

# An excerpt (hit frequency here may not be typical).
